# Compound activity deposited in PubChem by several laboratories.
# Mtb growth: M. tuberculosis H37Rv growth inhibitors, H37Rv strain (AID 1626) | inhibition, % at 10 µM, or IC50 in µM where a hit was titrated | M. tuberculosis H37Rv growth inhibition; higher % means a stronger effect | 0.95% of 220,000 active;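 active = confirmed in a dose series; inconclusive = inhibition above 80% but not taken into the dose series; inactive = below 80% or under 30% at every dose of the series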;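 also: bacteria incubated seven days before Alamar blue readout; 0% = bacteria only wells and 100% = bacteria with antibiotic wells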
# YopH PTP inh: YopH (Yersinia) phosphatase inhibition; fluorescence Ex485/Em525; inhibition, %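 (about 10 µM by stock and volumes)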; 0.16% of 140,000 active; AID 898;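 active = inhibition of 50% or more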;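 also: controls were vehicle for no effect and minimum signal wells for full effect; inactives centre near -20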
# Arbovirus anti: blocks arbovirus infection; 0.37% of 200,000 active; arbovirus infection cell-based antiviral screen; AID 1251; inhibition, % at 10 µM;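 active = inhibition from about 30%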;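 also: bluetongue infection of BSR cells; cell survival read as ATP light after 72 h; 0% = infected wells without compound and 100% = uninfected wells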
# RecA splice inh: inhibitors of M. tuberculosis RecA intein splicing; P9WHJ3; cell-free RecA intein splicing, fluorescence; inhibition, %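 (about 9 µM by stock and volumes)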; 0.75% of 290,000 active; AID 2221; in the data active = inhibition above about 30%; inconclusive = no clear call, values can overlap the other calls;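 also: 0% = vehicle wells and 100% = reference inhibitor control wells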
# Target sequence (P9WHJ3 whole entry, looked up, canonical isoform): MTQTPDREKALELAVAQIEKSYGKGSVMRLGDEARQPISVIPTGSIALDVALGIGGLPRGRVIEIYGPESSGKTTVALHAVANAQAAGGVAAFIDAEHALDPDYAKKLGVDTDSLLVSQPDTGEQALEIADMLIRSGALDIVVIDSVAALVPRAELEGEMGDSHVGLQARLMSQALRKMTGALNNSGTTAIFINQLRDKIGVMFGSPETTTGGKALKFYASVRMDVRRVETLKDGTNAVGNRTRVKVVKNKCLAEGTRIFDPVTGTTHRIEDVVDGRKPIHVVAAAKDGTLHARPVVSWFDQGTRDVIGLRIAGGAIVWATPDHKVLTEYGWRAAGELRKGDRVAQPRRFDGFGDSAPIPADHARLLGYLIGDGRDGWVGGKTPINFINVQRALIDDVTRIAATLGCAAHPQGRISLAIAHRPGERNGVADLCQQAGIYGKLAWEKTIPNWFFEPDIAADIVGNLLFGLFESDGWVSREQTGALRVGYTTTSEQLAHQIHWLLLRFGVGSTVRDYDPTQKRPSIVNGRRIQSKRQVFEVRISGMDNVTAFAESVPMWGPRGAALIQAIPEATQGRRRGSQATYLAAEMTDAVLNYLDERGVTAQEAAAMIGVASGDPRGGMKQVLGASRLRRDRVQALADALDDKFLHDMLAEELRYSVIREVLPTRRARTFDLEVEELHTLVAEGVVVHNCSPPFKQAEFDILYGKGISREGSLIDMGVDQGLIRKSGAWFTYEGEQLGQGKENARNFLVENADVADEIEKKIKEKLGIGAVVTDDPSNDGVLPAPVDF
# Mtb betalactam: beta-lactam sensitization of Mtb H37Rv | inhibition, % at 25 µM | 0.27% of 330,000 active | AID 434955 | M. tuberculosis H37Rv growth with meropenem, percent inhibition; hits of this screen are not shown here;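 active = about 74% or more and at least 40 points above the plate without the antibiotic, then above 30% in a dose series; inconclusive = first-round hits that could not be retested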;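 also: growth measured after seven days incubation then overnight dye step; 0% = bacteria only wells and 100% = bacteria with antibiotic; twin plates without the antibiotic show which effects depend on it; some results filed as inactive read as strong as hits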
# Arbovirus anti repeat: recorded beside Arbovirus anti, whose call it bears; inhibition, %; measured here: 10K subset replicate screen; many hits read low in the repeat;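 first of two repeat runs on a subset; 0% = infected and 100% = uninfected wells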
# An asterisk follows results filed as active; ? = inconclusive; . = not tested or not shown. These rows are one share of the data; the hit share may differ from the screen's.
SMILES,Mtb growth,YopH PTP inh,Arbovirus anti,RecA splice inh,Mtb betalactam,others
CCN(CC)CC(=O)Nc1ccc2c(c1)Nc1ccccc1CC2,11%,-32,-25,-1.8,-4,
Cc1nc(SCC(=O)c2ccc(Cl)cc2)c([N+](=O)[O-])[nH]1,-8%,2,11,2.1,5,
COc1cccc(OCCCCN2CC(C)OC(C)C2)c1 (configuration not stated),4%,15,-3,.,1,
CCN(CC(=O)Nc1c(F)cccc1F)C(=O)CCN1C(=O)C2CCCCC2C1=O (configuration not stated),.,.,.,-1.3,10,
CCOC(=O)C1CCCN(C(=O)c2ccc3c(=O)n(CCOC)c(=S)[nH]c3c2)C1 (configuration not stated),3%,-40,-2,-1.0,-5,
O=S(=O)(c1ccccc1)c1ncc(C(F)(F)F)cc1Cl,?,.,-30,63*,.,
O=C(NCCCN1CCOCC1)c1ccc2c(c1)N(Cc1ccccc1)C(=O)c1ccccc1S2,.,.,.,1.1,1,
CC(C(=O)Nc1ccc(C(N)=O)cc1)N1C(=O)c2ccccc2S1(=O)=O (configuration not stated),.,.,.,-7.1,-5,
O=S(=O)(c1cccs1)N1CCN(C/C=C/c2ccccc2)CC1,4%,-57,15,.,-1,
C=CCn1c(SCc2ccc(F)cc2)nnc1-c1sc2nc(C)cc(C)c2c1N,-7%,.,.,-5.7,5,
Cc1nn(C(C)C(=O)NNC(=S)Nc2ccc(Cl)cc2)c(C)c1[N+](=O)[O-] (configuration not stated),-12%,-18,-2,-0.3,-6,
Cc1ccc(CSc2nc(-c3ccccc3)c(C#N)c(=O)[nH]2)cc1,.,.,.,3.9,-7,
CCOC(=O)c1csc(NC(=O)CSc2nnc(C3CC3)n2C)n1,-14%,-21,-3,2.1,?,
O=C(c1ccc(CNS(=O)(=O)c2ccc(Br)cc2)cc1)N1CCC2(CC1)OCCO2,6%,-26,-7,0.2,-1,
CC1Cc2ccccc2N1C(=O)CSc1nnc(CSc2ncccn2)n1C (configuration not stated),-1%,-39,4,0.5,?,
Clc1ccc(-c2cc(CSc3ccccc3)on2)cc1,11%,-38,1,4.4,5,
NC(=O)C1CCN(c2ccc(S(=O)(=O)N3CCC(Cc4ccccc4)CC3)cn2)CC1,-3%,.,9,-2.9,6,
O=C(CNC(=O)Cc1ccccc1)NCC(=O)N1CCCCC1,.,.,.,0.3,-5,
Cn1cc(CN2CCCCC2CO)c(-c2ccc(Oc3ccccc3)cc2)n1 (configuration not stated),7%,.,0,0.9,-12,
CCOC(=O)c1cccc(NC(=O)Cn2c(CC(=O)NC)nc3ccccc32)c1,1%,-35,16,0.3,44,
CCCCNC(=O)C1CCN(S(=O)(=O)c2cnc[nH]2)CC1,-2%,-36,7,-3.6,-8,
CCOc1ccc(NC(=O)CN2C(=O)NC(C)(c3ccc(OC(F)F)cc3)C2=O)cc1 (configuration not stated),.,.,.,5.0,98,
COc1ccc(/C(O)=C2/C(=O)C(=O)N(CCCN3CCOCC3)C2c2ccc(C)cc2)cc1 (configuration not stated),.,.,.,1.7,-2,
COC(=O)CSc1nccc(C)n1,2%,.,-6,-3.3,-1,
NS(=O)(=O)c1ccc2nc(-c3ccccc3)c(-c3ccccc3)nc2c1,.,.,.,1.3,3,
Cc1oc2cc(O)ccc2c(=O)c1Oc1ccc(F)cc1,.,.,.,-2.3,5,
O=C(Cn1cnc2scc(-c3ccc(Br)cc3)c2c1=O)N1CCOCC1,9%,.,7,0.3,-5,
O=C(NC(=O)c1ccccc1F)Nc1nc(-c2cccs2)cc(C(F)(F)F)n1,.,-34,-8,1.3,-8,
OC1(C#CCCN2CCCCC2)c2ccccc2-c2ccccc21,-1%,.,21,0.8,-4,
Nn1c(SCc2ccccc2F)nnc1-c1ccccn1,-7%,.,.,-6.4,4,
O=c1c(-c2ccnn2-c2cccc(Cl)c2)cnc2n1CCS2,-2%,-19,2,1.7,0,
COCC(=O)Nc1nnc(SCC(=O)N2CCCCC2)s1,.,.,.,-0.3,6,
O=C(NCc1ccc2c(c1)OCO2)c1sccc1Br,0%,.,.,.,3,
COc1ccc(NC(=O)CN2CCC3(O)CCCCC3C2c2ccccc2OC)cc1 (configuration not stated),-4%,-33,-5,3.5,.,
Cc1cccc(-c2nc(Nc3cccc(O)c3)c3ccccc3n2)c1,.,.,.,-0.5,16,
O=c1[nH]c(/C=C/c2ccccc2Cl)nc2ccccc12,.,.,.,-28,5,
CCCN1C(=O)c2ccccc2NC1c1ccc(OC)cc1O (configuration not stated),-13%,-37,18,-1.5,-3,
CCCCCn1c(=O)[nH]c2cc(C(=O)N3CCN(Cc4ccc5c(c4)OCO5)CC3)ccc2c1=O,-7%,-18,-20,0.8,-1,
Cc1cc(C(=O)N2CCN(Cc3ccccc3)CC2)on1,-1%,-20,-4,3.6,-5,
O=C(NCc1ccco1)c1ccc(Cl)s1,0%,.,-1,-0.9,5,

# Copied from the entries so far, four compounds:
SMILES,Mtb growth,YopH PTP inh,Arbovirus anti,RecA splice inh,Mtb betalactam,others
COc1ccc(/C(O)=C2/C(=O)C(=O)N(CCCN3CCOCC3)C2c2ccc(C)cc2)cc1 (configuration not stated),.,.,.,1.7,-2,
COC(=O)CSc1nccc(C)n1,2%,.,-6,-3.3,-1,
NS(=O)(=O)c1ccc2nc(-c3ccccc3)c(-c3ccccc3)nc2c1,.,.,.,1.3,3,
Cc1oc2cc(O)ccc2c(=O)c1Oc1ccc(F)cc1,.,.,.,-2.3,5,

# Structural class: the compounds so far with two or more sulfur atoms
SMILES,Mtb growth,YopH PTP inh,Arbovirus anti,RecA splice inh,Mtb betalactam,others
O=S(=O)(c1cccs1)N1CCN(C/C=C/c2ccccc2)CC1,4%,-57,15,.,-1,
C=CCn1c(SCc2ccc(F)cc2)nnc1-c1sc2nc(C)cc(C)c2c1N,-7%,.,.,-5.7,5,
CCOC(=O)c1csc(NC(=O)CSc2nnc(C3CC3)n2C)n1,-14%,-21,-3,2.1,?,
CC1Cc2ccccc2N1C(=O)CSc1nnc(CSc2ncccn2)n1C (configuration not stated),-1%,-39,4,0.5,?,
COCC(=O)Nc1nnc(SCC(=O)N2CCCCC2)s1,.,.,.,-0.3,6,

# Following part.
SMILES,Mtb growth,YopH PTP inh,Arbovirus anti,RecA splice inh,Mtb betalactam,others
Cn1c(SCC(=O)N/N=C/C=C\c2ccco2)nc2ccccc21,-8%,2,6,3.1,-14,
N#CC1=C2SCN(c3ccc(F)cc3)CN2C(=O)CC1c1cccc(F)c1 (configuration not stated),46%,-43,4,2.1,4,Arbovirus anti repeat=-1
CN(c1ccccc1)S(=O)(=O)c1ccc(Cl)c(C(=O)OCC(=O)NC2CCS(=O)(=O)C2)c1 (configuration not stated),-2%,.,2,-5.9,2,
O=C(OCc1cn(-c2ccc(Cl)cc2)nn1)c1ccccc1,.,-5,5,1.3,5,
COC(=O)C1=C(c2cccc(OC)c2OC)C[C@@H]2CC[C@H]1N2C(=O)N1CCOCC1,1%,.,.,-0.3,-9,
CC(CCc1ccccc1)NC(=O)CSc1cccc[n+]1[O-] (configuration not stated),2%,.,16,-0.7,2,
CCC(C)[C@H](NC(=O)N1CCC(C)CC1)C(=O)OC (some centres not stated),-10%,.,.,2.1,-4,
c1cc2c(cc1C1=NNC(=NC3CC3)SC1)OCCO2,0%,.,-10,-0.1,-5,
CC(C)c1ccc(Nc2c([N+](=O)[O-])c(=O)n(C)c3ccccc23)cc1,7%,.,.,2.2,-1,
CCOc1ccc2cc(C#N)c(SCC(=O)NC(C)CC)nc2c1 (configuration not stated),-11%,-18,-19,-3.1,4,
COc1ccc(/C=C(\NC(=O)c2ccc(OC)c(OC)c2)C(=O)NCCc2c[nH]c3ccccc23)cc1,-5%,-26,0,2.4,-2,
CC(C)(C)c1cnnn1-c1ccc(NC(=O)c2ccc(Br)o2)cc1,7%,-30,10,7.6,-2,
Fc1ccccc1CSc1nnc(-c2cnccn2)n1Cc1ccco1,.,-35,-3,3.0,-3,
Cc1nc(SC2C=CS(=O)(=O)C2)n[nH]1 (configuration not stated),1%,-1,7,-1.2,-12,
CCNC(=S)N/N=C/c1ccc(OCc2ccc(C(=O)OC)cc2)cc1,0%,-13,3,1.0,-5,
Cc1[nH]c(=O)[nH]c(=O)c1S(=O)(=O)N1CCCC(C(=O)N2CCC(Cc3ccccc3)CC2)C1 (configuration not stated),-1%,-38,0,.,-1,Arbovirus anti repeat=1
Cc1ccc(CNC(=O)C(=O)NCC2OCCN2S(=O)(=O)c2cccs2)cc1 (configuration not stated),-2%,-1,3,4.3,4,
O=C(O)c1ccn(COc2ccc(Br)cc2)n1,-1%,.,21,2.2,-4,
Cc1ccc(-c2cc(N)n3nc(-c4ccc(C)cc4)cc3n2)cc1,.,-29,1,0.4,4,
COc1ccc(CNC(=O)C2CC(C)=C(C)CC2C(=O)O)cc1OC (configuration not stated),.,.,.,-0.9,6,
CC(C)n1c(C(=O)OCC(=O)NCc2ccc3c(c2)OCO3)cc2occc21,-9%,-14,-5,-0.3,3,
O=C(O)C1=CCNCC1,-2%,.,.,1.4,-3,
COc1ccc(C(=O)Nc2ccccc2C(=O)Nc2cc(C)ccn2)cc1,.,.,.,1.6,2,
COc1ccc(NS(=O)(=O)c2cccc(C(=O)NNC(=O)c3ccccc3OC)c2)cc1,.,.,.,-0.9,-10,
N#Cc1c(-c2ccco2)nc(SCc2ccc(F)cc2)[nH]c1=O,-12%,10,18,6.1,3,
COc1cc(C(=O)NCC(=O)N2CC=C(c3ccccc3)CC2)cc(OC)c1OC,.,.,.,1.7,-18,
CCOc1cccc2sc(N(CCN(C)C)C(=O)/C=C/c3cccs3)nc12,.,.,.,11,100,
CCOc1cccc2sc(=NC(=O)c3ccco3)n(CC(=O)OC)c12,3%,.,.,0.3,2,
O=C(C1=C(O)C(=O)N(Cc2ccco2)C1c1cccs1)c1cccs1 (configuration not stated),-2%,-24,8,2.5,6,
O=C(Nc1ccccc1)NC1(C(=O)NCc2cccs2)CCCCC1,-4%,-38,-5,-5.6,-1,
CC(=O)N1N=C(c2ccc(Br)cc2)OC12CCCC2,-1%,.,.,2.3,1,
CCOC(=O)N1CCC(NC(=O)c2cc(S(=O)(=O)N3CCOCC3)ccc2F)CC1,-6%,-26,-1,-5.8,-10,
Cn1c(SCc2nc3ccccc3n2CCO)nc2ccccc21,-10%,-11,3,.,7,

# Among those listed so far, 2 have a CF3 group.
SMILES,Mtb growth,YopH PTP inh,Arbovirus anti,RecA splice inh,Mtb betalactam,others
O=S(=O)(c1ccccc1)c1ncc(C(F)(F)F)cc1Cl,?,.,-30,63*,.,
O=C(NC(=O)c1ccccc1F)Nc1nc(-c2cccs2)cc(C(F)(F)F)n1,.,-34,-8,1.3,-8,

# Pulled by compound from the list above:
SMILES,Mtb growth,YopH PTP inh,Arbovirus anti,RecA splice inh,Mtb betalactam,others
N#Cc1c(-c2ccco2)nc(SCc2ccc(F)cc2)[nH]c1=O,-12%,10,18,6.1,3,
O=C(Nc1ccccc1)NC1(C(=O)NCc2cccs2)CCCCC1,-4%,-38,-5,-5.6,-1,
CC(=O)N1N=C(c2ccc(Br)cc2)OC12CCCC2,-1%,.,.,2.3,1,
CCOC(=O)N1CCC(NC(=O)c2cc(S(=O)(=O)N3CCOCC3)ccc2F)CC1,-6%,-26,-1,-5.8,-10,
COc1ccc(NS(=O)(=O)c2cccc(C(=O)NNC(=O)c3ccccc3OC)c2)cc1,.,.,.,-0.9,-10,
